gsp antag – antagonizes gsp, the McCune-Albright syndrome mutation; gsp-mutant cells, cAMP HTRF, 30 min; control for the full effect not named in the record; Potency, µM (titrated, usually from 76.9 µM), for the others: at the highest dose activity change, negative = inhibition, actives largely listed as inhibitors; 340,000 tested, 0.4% active; active = falling curve of any shape with a large fitted effect; inconclusive = falling curve, mostly with a smaller effect; inactive = flat or rising curve; cell line not stated here;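 note: intracellular cAMP measured with PDE inhibitor Ro 20-1724 present during compound exposure; potency is the fitted concentration of half-maximal effect; % is set by controls: 0 for no effect and ±100 for the full control effect; nearly all actives have a fitted effect of over 65% in size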
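G418-selected cells were plated in DMEM/10% FBS for 16-24 h at 37C, then treated with compounds plus the PDE inhibitor […] (300 uM solution added) for 30 min at 37C. Intracellular cAMP was measured by HTRF after 30 min lysis at room temperature.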
Sfp inh – blocks B. subtilis Sfp PPTase activity; AID 1490; 310,000 tested, 3.5% active; Potency, µM, for inactives: max response, negative = inhibition, actives largely listed as inhibitors; Biochemical Sfp PPTase activity, qHTS; active = well fitted inhibition curve with a large enough effect; inconclusive = small, poorly fitted or top-dose-only effect, or another doubt; inactive = no such curve, though single readings can be large or run the other way;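 note: the enzyme is Sfp with the accession as filed and its product quenches rhodamine fluorescence; potency is the fitted concentration of half-maximal effect; 0% = enzyme reaction without inhibitor and -100% = no enzyme wells; top concentration of the series not given in the record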
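Compounds were incubated with enzyme (final 15 nM) for 15 min at room temperature before substrate addition started the reaction. Fluorescence at 525 nm excitation, 598 nm emission was recorded immediately and after 30 minutes.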
ClpP mod – qHTS Assay for Activators of ClpP; 340,000 tested, 1.9% active; Potency, µM (doses to about 57.5 µM), for inactives: top-dose activity change, negative = active; purified B. subtilis ClpP, FRET peptide cleavage, 20 min; active = well fitted falling curve with a large enough effect; inconclusive = small, poorly fitted or top-dose-only effect; inactive = no such curve, though single readings can be large or run the other way; note: potency is the fitted concentration of half-maximal effect; the source files actives as falling curves though it sought activators and does not explain the sign; nearly all actives have a fitted effect of over 65% in size; many hits overshoot -100%
Target sequence (P80244 whole entry, looked up): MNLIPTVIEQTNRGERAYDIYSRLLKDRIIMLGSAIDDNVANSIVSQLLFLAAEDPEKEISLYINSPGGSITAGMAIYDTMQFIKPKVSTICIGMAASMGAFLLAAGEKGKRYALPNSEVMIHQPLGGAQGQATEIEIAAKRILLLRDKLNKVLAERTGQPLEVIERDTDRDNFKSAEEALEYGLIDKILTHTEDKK
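ClpP 10 microg/mL final, pH 8 Tris/KCl buffer with BSA, glycerol, Tween-20; compound pinned in; FRET-FV substrate; RT 20 min; Ex320/Em430; ΔFRET vs ADEP 5.8 microM, DMSO, no enzyme.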
TRPV1 potentiator – potentiators of human vanilloid receptor 1 (TRPV1). 320,000 tested, 0.02% active. potentiation, % at 8.33 µM. Q8NER1. TRPV1-expressing cells, Fluo-8 calcium influx, capsaicin EC20 potentiation; host cell line not named in the record; control for the full effect not named in the record; active means potentiation above 80%; inconclusive means 30% to 80%; inactive means below 30%; note: 0% is about no effect
Target sequence (Q8NER1 whole entry, looked up): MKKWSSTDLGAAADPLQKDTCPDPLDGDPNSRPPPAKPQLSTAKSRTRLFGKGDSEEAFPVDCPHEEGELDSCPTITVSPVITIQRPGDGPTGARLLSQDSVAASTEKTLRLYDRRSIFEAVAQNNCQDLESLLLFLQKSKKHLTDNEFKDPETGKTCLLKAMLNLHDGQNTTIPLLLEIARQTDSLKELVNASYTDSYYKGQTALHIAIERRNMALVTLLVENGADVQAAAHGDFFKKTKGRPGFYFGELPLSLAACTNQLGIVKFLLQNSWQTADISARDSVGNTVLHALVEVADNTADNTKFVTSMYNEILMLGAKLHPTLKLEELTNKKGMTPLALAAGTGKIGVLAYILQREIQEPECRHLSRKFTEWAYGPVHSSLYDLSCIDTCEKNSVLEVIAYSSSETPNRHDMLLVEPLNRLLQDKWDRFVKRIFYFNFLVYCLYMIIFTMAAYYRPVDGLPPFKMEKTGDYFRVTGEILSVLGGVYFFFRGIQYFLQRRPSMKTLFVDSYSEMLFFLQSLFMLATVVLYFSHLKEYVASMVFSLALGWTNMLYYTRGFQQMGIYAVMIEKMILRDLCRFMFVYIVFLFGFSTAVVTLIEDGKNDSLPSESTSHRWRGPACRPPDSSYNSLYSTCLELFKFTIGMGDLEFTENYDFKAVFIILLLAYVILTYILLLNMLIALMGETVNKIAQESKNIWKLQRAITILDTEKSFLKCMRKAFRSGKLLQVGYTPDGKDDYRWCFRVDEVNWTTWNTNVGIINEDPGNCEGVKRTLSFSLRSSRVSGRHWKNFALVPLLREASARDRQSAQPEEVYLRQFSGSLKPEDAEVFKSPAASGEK
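TRPV1-expressing cells were cultured overnight at 35.5C and loaded with Fluo-8 calcium dye for 40 to 90 min at room temperature. After a 10 s baseline, compound was added and calcium influx was read kinetically for 3 min (ex 480/em 520 nm).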
Menin MLL FP FL – menin-MLL binding inhibition, fluorescein peptide; FP activity change, % at 61.4 µM; AID 1766; 290,000 tested, under 10 active; Fluorescence polarization, fluorescein-MLL peptide displacement from menin; inconclusive = falling polarisation curve, or a change in total fluorescence; inactive = total fluorescence flat and polarisation flat or rising; no compound was filed as active; the % refers to the polarisation; negative = inhibition;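 note: % of control where 0% means no effect; inhibitors lower the polarisation; unlabelled MLL peptide was the positive control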
TRPML1 blocker – inhibitors of human TRPML1 channel | TRPML1-inducible cells, Ca2+ dye fluorescence, FDSS; active compounds read low; inhibition of EC80 agonist-evoked calcium signal | activity change, negative = inhibition, % (test concentration not listed) | 390,000 tested, 0.02% active | AID 624415; in the data active means activity change below about -50%; inconclusive means about -30% to -50%; inactive means above about -30%;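 note: stimulus is agonist 54-4 at its EC80 concentration; % is set by controls: 0 for no effect and ±100 for the full control effect; compound concentration not given in the record; the text of the record puts the active cut at -80%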
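Calcium fluorescence in TRPML1-DL cells induced overnight with Tet: a 110 s read after compound pin addition, then a 110 s antagonist read after challenge with 54-4 at 4 uM final (EC80).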
gsp ag – activates gsp, the McCune-Albright syndrome mutation | Potency, µM (highest dose often 76.9 µM), inactives show at the top dose activation (cAMP increase), most hits filed as activators | 340,000 tested, 0.13% active | gsp mutant cells, cAMP HTRF, 30 min; control for the full effect not named in the record; active = well fitted activation curve with a large enough effect; inconclusive = small, poorly fitted or top-dose-only effect, or another doubt; inactive = no such curve, though single readings can be large or run the other way; cell line not stated here;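 note: phosphodiesterase inhibitor Ro 20-1724 added with compounds to block cAMP breakdown; potency is the fitted concentration of half-maximal effect; nearly all actives have a fitted effect of over 60% in size; about a fifth of the inactives were tested at one dose only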
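Cells stably selected in G418 were plated at 2000/well, grown 16-24 hr, then given compounds in DMSO with the PDE inhibitor […] (300 uM solution added) for 30 min at 37C; cAMP was read by HTRF.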
Active calls of the source: *; ? = inconclusive; nt = not tested or not shown; [ ] = dose if it differs, or a comment.

SMILES | gsp antag | Sfp inh | ClpP mod | TRPV1 potentiator | Menin MLL FP FL | TRPML1 blocker | gsp ag
CCOC(=O)COc1ccc(S(=O)(=O)N2CCN(c3ccccc3F)CC2)cc1 | -23% | 21% | -1.1% | -6 | 0.2 | 2 | -21%
COc1ccccc1OCC(=O)Nc1ccccc1C(=O)N1CCCCC1 | 9% | 22% | -2.7% | 9 | nt | -12 | -43%[inhibitor]
CCC(=O)Nc1ccccc1-c1nnn(CC(=O)N2c3ccccc3CC2C)n1 (stereo not drawn) | -8% | 8% | 1.2% | -8 | 13 | -1 | -4%
Cc1nc2ccc(S(=O)(=O)NCC(=O)N3CCOCC3)cc2s1 | 1% | 0% | -2.4% | 1 | 0.8 | 1 | 5%
Cc1nccn1CC(=O)c1ccccc1 | nt | nt | -0.4% | nt | nt | -3 | ?
CC(=O)NC1C(=O)Nc2c(C)cc(C)cc21 (stereo not drawn) | -1% | 1% | -3.3% | 15 | -0.4 | 49 | -18%
CCOC(=O)N1CCN(C(=O)COC(=O)c2cc(C)ccc2C)CC1 | -13% | nt | nt | nt | nt | 37 | -46%[inhibitor]
COc1ccccc1NC(=S)N1CCN(c2ccc(F)cc2)CC1 | 4% | 1% | -13% | 23 | -7.3 | -4 | -7%
O=C(O)C(=Cc1cccc([N+](=O)[O-])c1)c1ccccc1 | nt | nt | 1.4% | nt | nt | 24 | -36%[inhibitor]
COc1ccccc1N1CCN(c2nc(N)c(C#N)c(CC#N)c2C#N)CC1 | -2% | -17% | -2.9% | 15 | ? | -3 | 0%
CCOC(=O)CSc1nnc(NC(=O)c2ccc3c(c2)OCO3)s1 | -1% | 11% | 1.0% | -7 | nt | -13 | -4%
O=c1[nH]n2cc(-n3cc([N+](=O)[O-])cn3)cnc2c1Br | 2% | 13% | 0.7% | 4 | -0.1 | 13 | ?
CCCCc1nc2cc(C(=O)N3CCC(OCCOC)CC3)ccc2o1 | 6% | 8% | nt | 0 | nt | -12 | 4%
CC(C)=CCC1=C(OCC(=O)O)C(=O)c2ccccc2C1=O | -1% | ? | 5.9% | ? | -21 | 9 | 14%
Cc1ccccc1C(=O)Oc1cc(N)n(S(=O)(=O)c2ccccc2)n1 | 14% | 5% | -1.8% | 7 | -1.2 | 0 | -36%[inhibitor]
CC(C(=O)N1CCCC1)N(c1ccccc1)S(C)(=O)=O (stereo not drawn) | nt | 11% | nt | 1 | -2.2 | nt | nt
COc1cccc2cc(C(=O)CS(=O)(=O)c3ccc(C(C)(C)C)cc3)c(=O)oc12 | -22% | 0% | 3.3% | -25 | nt | 3 | -11%
CCOc1ccc(-c2nc(-c3ccccc3C)no2)cc1 | nt | -16% | nt | -21 | 3.9 | nt | nt
COc1ccc(C(=O)c2c3ccc(C(F)(F)F)cc3[n+]([O-])n2CCCC(N)=O)cc1 | -7% | nt | -5.0% | -20 | nt | -4 | -18%
CCOC(=O)c1ccc(NC(=O)C23CCC(C)(C(=O)O2)C3(C)C)cc1 (stereo not drawn) | -11% | -5% | 0.2% | ? | -2.0 | 1 | ?
CCOc1ccc2[nH]c(=O)c(C(c3nnnn3CC3CCCO3)N3CCc4ccccc4C3)cc2c1 (stereo not drawn) | -8% | 3% | ? | -10 | 0.1 | 3 | -33%[inhibitor]
CCCCCN(C(=O)CCC(=O)OCCOc1ccc(OC)cc1)c1c(N)n(CCCC)c(=O)[nH]c1=O | 6% | nt | -0.4% | 4 | nt | -12 | -7%
Cc1cc(N=Nc2ccc(Cl)cc2)cc(CN2CCCC2)c1O | 9% | -12% | 1.3% | 4 | -2.5 | 2 | -44%[inhibitor]
O=C(c1ccc(-c2ccccc2)c(F)c1)C1CCCN(CCCn2cccn2)C1 (stereo not drawn) | -16% | -4% | 1.6% | -8 | -0.6 | 17 | -3%
CCN(CC(=O)Nc1cc(Cl)ccc1C)C(=O)C1CC(=O)N(Cc2ccccc2)C1 (stereo not drawn) | 6% | nt | nt | -8 | nt | 31 | -54%[15.4 µM]
O=C(NCC1COc2ccccc2O1)c1ccc(F)c(S(=O)(=O)N2CCOCC2)c1 (stereo not drawn) | -11% | nt | 1.3% | -22 | nt | 16 | 9%
Cc1cc(Br)cc(C)c1OCC(=O)NNC(=O)c1cccs1 | 2% | 9% | -1.5% | 5 | -0.1 | 11 | 11%[15.4 µM]
COc1ccc(C(=O)Nc2ccccc2)cc1NC(=O)c1cccs1 | -6% | -8% | -1.8% | -2 | nt | 8 | 20%
O=C(COc1cccc(C(F)(F)F)c1)NCCCN1CCCC1=O | 7% | 8% | -5.4% | 15 | 0.4 | 0 | -54%[inhibitor]
CCCCn1c(/N=C/c2ccc3c(c2)OCO3)nc2ccccc21 | 6% | 8% | -0.1% | 2 | -5.4 | 23 | -1%
C=CCSc1nc2c(c(C3CC=CCC3)c1C#N)CCC2 (stereo not drawn) | -7% | ? | -4.3% | -1 | -0.9 | 4 | 6%
c1ccc(-c2nnc3sc(CN4CCc5ccccc54)cn23)cc1 | 10% | -14% | 1.2% | -33 | 9.5 | 19 | 16%
CCOc1cc(N2CCOCC2)c(OCC)cc1NC(=O)c1[nH]c(C)c(C(C)=O)c1C | -3% | nt | 0.2% | 12 | nt | 7 | -15%
Cc1cc(NC(=O)c2ccccc2)ncc1NC(=O)c1ccco1 | 13% | -15% | -0.2% | -8 | -1.3 | 1 | -6%
Cc1ccc(S(=O)(=O)N2c3ccccc3-c3c(ssc3=S)C2(C)C)cc1 | -7% | -2% | 1.4% | 16 | 3.8 | -18 | 1%
CC1CCN(C2(O)C(=O)Nc3ccc(Br)cc32)CC1 (stereo not drawn) | 6% | 16% | -0.5% | -3 | 1.0 | -17 | 6%
Cc1ccc(NC(=O)c2ccc3c(=O)n4c(nc3c2)CCC4)cc1S(=O)(=O)N(C)C | 3% | nt | -3.8% | -2 | nt | 12 | 1%
COc1ccc(CC(=O)NCC2CCCN(Cc3cccc(C(F)(F)F)c3)C2)cc1 (stereo not drawn) | -18% | 19% | 0.7% | -30 | 5.1 | 6 | 3%[15.4 µM]
CC(=O)Nc1cc(C(=O)N2CCN(C)CC2)ccc1Sc1ccc(C)cc1 | 8% | 10% | 0.5% | 7 | 2.8 | 14 | ?
CCc1ccc2oc(-c3ccc(OC)cc3)cc(=Nc3c(C)n(C)n(-c4ccccc4)c3=O)c2c1 | 28µM* | 79µM* | 3.8% | -2 | -1.3 | 44 | -1%

Grouped by structure, the compounds so far with four or more nitrogen atoms.
SMILES | gsp antag | Sfp inh | ClpP mod | TRPV1 potentiator | Menin MLL FP FL | TRPML1 blocker | gsp ag
CCC(=O)Nc1ccccc1-c1nnn(CC(=O)N2c3ccccc3CC2C)n1 (stereo not drawn) | -8% | 8% | 1.2% | -8 | 13 | -1 | -4%
COc1ccccc1N1CCN(c2nc(N)c(C#N)c(CC#N)c2C#N)CC1 | -2% | -17% | -2.9% | 15 | ? | -3 | 0%
O=c1[nH]n2cc(-n3cc([N+](=O)[O-])cn3)cnc2c1Br | 2% | 13% | 0.7% | 4 | -0.1 | 13 | ?
CCOc1ccc2[nH]c(=O)c(C(c3nnnn3CC3CCCO3)N3CCc4ccccc4C3)cc2c1 (stereo not drawn) | -8% | 3% | ? | -10 | 0.1 | 3 | -33%[inhibitor]
CCCCCN(C(=O)CCC(=O)OCCOc1ccc(OC)cc1)c1c(N)n(CCCC)c(=O)[nH]c1=O | 6% | nt | -0.4% | 4 | nt | -12 | -7%
c1ccc(-c2nnc3sc(CN4CCc5ccccc54)cn23)cc1 | 10% | -14% | 1.2% | -33 | 9.5 | 19 | 16%
Cc1ccc(NC(=O)c2ccc3c(=O)n4c(nc3c2)CCC4)cc1S(=O)(=O)N(C)C | 3% | nt | -3.8% | -2 | nt | 12 | 1%

Following part
SMILES | gsp antag | Sfp inh | ClpP mod | TRPV1 potentiator | Menin MLL FP FL | TRPML1 blocker | gsp ag
Cc1c(Cl)cccc1-c1ccc(/C=N/n2cnnc2)o1 | 10% | 5% | -8.7% | 2 | -5.3 | -7 | -20%
CCOC(=O)C1CCN(C(=O)CN2C(=O)c3cccnc3Oc3ccccc32)CC1 | 0% | 10% | -4.3% | -15 | nt | -5 | 11%
CN1CCCN(C(=O)CNC(=O)c2ccc(Cl)cc2Cl)CC1 | 8% | nt | nt | nt | nt | 26 | 7%
O=C(NCCOc1ccccc1F)c1cc([N+](=O)[O-])ccc1N1CCOCC1 | 8% | 7% | 1.6% | -6 | 1.5 | 7 | -1%
Cn1c(=O)c2c(nc(Oc3ccc4c(c3)OCO4)n2Cc2ccc(Br)cc2)n(C)c1=O | 8% | 9% | nt | 8 | 2.2 | 15 | 16%[15.4 µM]
Cc1nc2cc(Nc3nnc(-c4ccccc4)c4ccccc34)ccc2n1C | -5% | 4% | -0.3% | -8 | 6.7 | 3 | -10%
Cc1ccc(-c2noc(/C=C/c3ccccc3)n2)cc1 | 1% | -17% | -8.3% | 9 | -2.1 | -11 | 26%
NC(=O)c1ccc(NC(=O)CN2CCN(S(=O)(=O)c3ccc4c(c3)OCCO4)CC2)cc1 | 50µM* | nt | -2.2% | 8 | nt | 4 | 21%
CCC1Oc2ccccc2N(CC(=O)NC2CCCCC2C)C1=O (stereo not drawn) | 6% | 15% | 1.2% | -16 | 2.9 | 15 | 19%
CCCCN(CC)C(=O)Cn1nc(Cc2ccncc2)c2ccccc2c1=O | -5% | 20% | -2.3% | -6 | 1.4 | nt | 24%
Cc1ccc(S(=O)(=O)n2ccc(-c3ccc(OCc4c(F)cccc4Cl)cc3)n2)cc1 | 6% | 15% | 0.8% | -8 | -2.3 | 12 | -15%
CCOc1ccc(N(CC(=O)NCc2ccc(F)cc2)C(=O)c2ccco2)cc1 | 1% | -4% | -0.3% | -7 | -0.8 | 14 | -8%[15.4 µM]

Compound activity: PubChem, National Center for Advancing Translational Sciences (NCATS)
